Bioassay records from PubChem.
Mtb H37Rv: Confirmatory growth inhibition assay against Mycobacterium tuberculosis H37Rv, potency (AID 1949); 100,000 compounds, 1.6% hits; most inactive calls were filed without a number and no value below 0 was filed; inhibition, % at 10 µg/mL, or IC50 in µg/mL where a hit was titrated;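 active = confirmed in a dose series; inconclusive = about 50% or more but not retested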;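 note: bacteria grown 7 days with compound before Alamar blue readout; 0% = untreated bacteria and 100% = reference antibiotic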
Starred values were filed as active, the others as inactive; i = inactive; ? = inconclusive. Some of the compounds tested (hit frequency here may not be typical).

SMILES	Mtb H37Rv
COc1ccc(C2C(C#N)=C(N)Oc3n[nH]c(-c4ccccc4)c32)cc1Cn1cc([N+](=O)[O-])cn1 (stereo not drawn)	i
O=C(NCCCN1CCOCC1)c1cccnc1	i
CC(C)(Oc1ccc(Cl)cc1)c1nc(-c2ccc(Br)cc2)no1	i
CCOC(=O)c1c(NC(=O)C2CC(=O)N(c3ccccc3)C2)sc2c1CCCC2 (stereo not drawn)	i
Cc1sc(NC(=O)c2ccccc2F)nc1C12CC3CC(CC(C3)C1)C2	19.5%
COc1ccc(OC)c(N(CC(=O)Nc2ccccc2C(N)=O)S(=O)(=O)c2ccccc2)c1	i
C=CCN(CC=C)C(=O)COc1ccc(Cl)cc1Br	i
CS(=O)(=O)N(CC(=O)Nc1cccc([N+](=O)[O-])c1)c1ccc(I)cc1	4.8%
CC(=O)c1ccc(NC(=O)NNC(=O)c2cccc(N(C)C)c2)cc1	i
CC(C)C(=O)Nc1cccc(NC(=S)NC(=O)c2ccc(-c3ccccc3)cc2)c1	i
CC1=NN(C(=O)Cc2ccccc2)C(O)(C(F)(F)F)C1 (stereo not drawn)	i
COc1c(F)c(F)c(-c2csc(NC(C)=O)n2)c(F)c1F	i
CC(C)(C)c1ccc(-c2n[nH]c(=S)n2CCc2ccccc2)cc1	0.8%
Cc1ccc(N(CC(=O)Nc2ccc(S(=O)(=O)N3CCOCC3)cc2)S(=O)(=O)c2ccc(F)cc2)cc1	i
COc1ccc(-c2nc3ccccc3n2CCC(C)C)cc1OC	i
COC(=O)C(C(=O)Nc1nc2ccccc2s1)C1CCCC1 (stereo not drawn)	10.8%
COC(=O)c1ccc(COC(=O)c2ccc(C(C)(C)C)cc2)cc1	i
N#Cc1ccccc1NC(=O)c1ccc(OCc2ccccc2)cc1	0.1%
CCOc1ccc(NS(=O)(=O)c2ccc(N)cc2)cc1	3.2%
CN(C)c1ccc(NC(=O)c2cc3ccccc3oc2=O)cc1	i
COc1cc(OC)cc(C(=O)Nc2nnc(C(C)C)s2)c1	i
CCc1ccc(OC(=O)COc2ccc(C)cc2Br)cc1	i
O=C(CSCc1c(Cl)cccc1Cl)Nc1cccc(Cl)c1	i
COc1cccc(N2C(=O)CC(Sc3nnc(SCc4ccc(Cl)cc4)s3)C2=O)c1 (stereo not drawn)	i
CCc1ccccc1NC(=O)c1ccc(C(=O)Nc2ccccc2CC)s1	i
COc1ccc(N(CC(=O)Nc2ccc(I)cc2C)S(C)(=O)=O)cc1Cl	i
Cc1nn(Cc2c(F)cccc2Cl)c(C)c1NC(=S)NCCc1ccccc1	0.7%
COc1ccc(CNc2ccc(NC(C)=O)cc2)c(OC)c1	i
COC(=O)C1=C(C)NC(C)=C(C(=O)OC)C1/C=C/c1ccccc1	i
O=C(C1=C(O)C(=O)N(Cc2ccco2)C1c1cccc(Oc2ccccc2)c1)c1cccs1 (stereo not drawn)	i
COc1ccc(-c2noc(COc3ccccc3Cl)n2)cc1OC	i
CC(C)OCCCNC(=S)Nc1ccc(F)c(Cl)c1	i
COc1ccc(-c2noc(-c3cccc(Br)c3)n2)cc1	i
CCOc1ccc(C(=O)Nc2cccc(NC(=O)C(C)C)c2)cc1Cl	1.6%
COCCSc1nnc(NC(=O)Cc2c(F)cccc2Cl)s1	1.6%
COc1ccccc1NC(=O)CSc1nc2nc(C)cc(C)c2c(=O)[nH]1	i
COC(=O)c1cc(OC)c(OC)cc1NC(=O)c1cccc(C)c1	i
Nc1nc2ccc(S(=O)(=O)c3ccccc3)cc2[nH]1	0.5%
Cc1ccc(S(=O)(=O)N(CC(=O)Nc2cccc(F)c2)c2ccc(C)cc2C)cc1	i
O=c1ccc2ccc(OCc3ccc(F)cc3Cl)cc2o1	1.1%
COc1cc(C=O)cc(Br)c1OCC(=O)Nc1cccc(C(F)(F)F)c1	i
COc1ccccc1OCC(=O)Nc1ccc(Cl)cc1C(F)(F)F	0.2%
Cc1cc(C)cc(CSc2nnc(C)c(=O)[nH]2)c1	i
COc1ccc(CCn2c(C)cc(C(=O)CSc3nnnn3-c3ccccc3)c2C)cc1OC	i
O=C(NC(=S)Nc1cccc(-c2cc3ccccc3oc2=O)c1)c1ccc(Br)cc1	0.4%
NC(=O)CN(Cc1ccccc1F)S(=O)(=O)c1ccc(Cl)cc1	i
O=C(NCc1ccccc1Cl)C12CC3CC(CC(C3)C1)C2	i
Cc1ccc(O)c(NC(=O)c2ccc(Cl)cc2Cl)c1	i
CCCS(=O)(=O)c1nc(S(=O)(=O)c2ccc(C)cc2)c(N2CCCCCC2)s1	2.7%
O=C(Nc1nc2c(Cl)cccc2s1)c1cccs1	41.9%

Six compounds picked at random from the list so far, as already listed:
SMILES	Mtb H37Rv
COc1ccccc1OCC(=O)Nc1ccc(Cl)cc1C(F)(F)F	0.2%
Cc1ccc(O)c(NC(=O)c2ccc(Cl)cc2Cl)c1	i
Cc1cc(C)cc(CSc2nnc(C)c(=O)[nH]2)c1	i
NC(=O)CN(Cc1ccccc1F)S(=O)(=O)c1ccc(Cl)cc1	i
O=C(NCc1ccccc1Cl)C12CC3CC(CC(C3)C1)C2	i
COc1cc(C=O)cc(Br)c1OCC(=O)Nc1cccc(C(F)(F)F)c1	i

Later entries
SMILES	Mtb H37Rv
C=CCOc1ccc(C(=O)NCCCN2CCOCC2)cc1	2.4%
CC(C)CC(=O)N1CC2(C)CN(C(=O)CC(C)C)CC(C)(C1)C2=O	i
COc1ccc(S(=O)(=O)N(CC(=O)Nc2ccc(C(F)(F)F)cc2)c2ccccc2OC)cc1	i
CCc1c2c(nc3sc(C(=O)c4ccc5c(c4)OCCO5)c(N)c13)CC(C)(C)CC2=O	35.9%
COc1ccc(C(CC(=O)c2ccc(F)cc2)S(=O)(=O)c2ccccc2)cc1 (stereo not drawn)	27.1%
COC(=O)c1ccc(Oc2c(C)oc3cc(O)ccc3c2=O)cc1	i
COc1c(Cl)cc(C(=O)Nc2ccc(N3CCN(C(=O)c4ccc(C)cc4)CC3)cc2)cc1Cl	2.4%
Cc1cccc(-n2ncc3c(N4CC(C)OC(C)C4)ncnc32)c1 (stereo not drawn)	i
COC(=O)C1=C(C)NC(=O)NC1c1cc(Cl)ccc1OCc1ccccc1 (stereo not drawn)	4.2%
C=CCn1c(SCC(=O)Nc2ccc3c(c2)OCO3)nc2scc(-c3ccc(C)cc3)c2c1=O	i
C=CCn1c(SCc2c(C)noc2C)nc2scc(-c3ccco3)c2c1=O	i
CC(=O)c1cccc(OCCCCN2CCN(C)CC2)c1	0.9%
C=C1c2ccccc2NC(=O)N1c1ccc(F)cc1	i
O=C(c1ccco1)N1CCN(S(=O)(=O)c2ccc(Br)s2)CC1	i
COc1ccccc1N1CCN(S(=O)(=O)c2ccc3c(c2)n(C)c(=O)n3C)CC1	1.4%
S=C(NC1CCCCC1)N1CCC2(CC1)OCCO2	i
S=C(NCCCn1cccn1)Nc1cccc2ccccc12	i
COc1ccc(NC(=O)Cc2ccc(C)cc2)cc1	5.2%
CC(C)(O)C#Cc1ccc(C(=O)NC2CCCCC2)s1	i
COc1cc(OC)c(C2=NOC(C(=O)N3CCN(C(=O)c4cccc(F)c4)CC3)C2)cc1Cl (stereo not drawn)	i
Cc1ccc(S(=O)(=O)NC2c3cccc4cccc(c34)C2Sc2ccccn2)cc1 (stereo not drawn)	3.0%
CCOc1ccc(CC(=O)NC2CCCCC2)cc1OCC	i
Cc1ccc(C(=O)N2CCOCC2)c(C)c1	i
CC(=O)N(C)c1ccc(NC(=O)COc2ccc(C(C)(C)C)cc2)cc1	i
COc1ccc(Br)cc1S(=O)(=O)N(CC(=O)N1CCN(C)CC1)c1ccccc1	i
O=c1c2cc(I)ccc2nc(/C=C/c2ccc(O)cc2)n1Cc1ccccc1	i
COC(C(=O)Nc1ccc(S(=O)(=O)Nc2ccc(Cl)c(C(F)(F)F)c2)cc1)c1ccccc1 (stereo not drawn)	i
COCCNC(=O)c1ccccc1NC(=O)c1ccco1	i
N#Cc1ccc(NS(=O)(=O)c2ccc(Br)cc2)cc1	i
CCc1cccc(CC)c1NC(=O)c1ccccc1Nc1ccccc1OC	i
CC1(C)CC2CC(C)(CN2C(=O)c2ccccc2NC(=O)c2ccco2)C1 (stereo not drawn)	i
c1ccc2cc(OCc3nc(-c4ccncc4)no3)ccc2c1	4.6%
Clc1cc(Br)ccc1OCCCCN1CCCCC1	19.4%
COc1cc([N+](=O)[O-])ccc1NC(=O)NCC1CCCO1 (stereo not drawn)	i
COc1ccc2c(c1)c(=O)oc1cc(OCC(C)=O)ccc12	i
Cc1ccc(-c2nn(-c3ccccc3)cc2CNCc2ccccc2)cc1	1.11µg/mL*
COc1ccc(NC(=O)NNC(=O)C(C)Oc2ccc(C(C)C)cc2)c(OC)c1 (stereo not drawn)	i
CCCCC(=O)Nc1ccc(S(=O)(=O)NC(C)(C)C)cc1	3.0%
COc1ccc(NC(=O)CSc2nnc(-c3ccccc3)n2-c2ccccc2)c([N+](=O)[O-])c1	i
Cn1c(=O)c2[nH]c(CN3CCN(c4ccc(F)cc4)CC3)nc2n(C)c1=O	2.3%
COc1ccc(/C(N)=N/OC(=O)c2ccccc2Br)cc1OC	i
COc1ccc(NC(=S)NC(C)c2cc(C)ccc2C)c(OC)c1 (stereo not drawn)	i
COCCNC(=O)COc1cc(C)c(Br)c(C)c1	i
O=C(COc1ccccc1)Nc1cccc2c(NC(=O)COc3ccccc3)cccc12	i
COc1ccccc1OCC(=O)Nc1cc(NC(=O)COc2ccccc2OC)cc(C(=O)NC(C)(C)C)c1	0.1%
COc1ccc(/C=C/C(=O)/C=C/c2ccc(OC)cc2OC)c(OC)c1	?
CCOC(=O)C1CCN(C(=O)C(CC)Oc2ccccc2)CC1 (stereo not drawn)	i
S=C(NCCN1CCOCC1)NNC(=S)NCCN1CCOCC1	i
COc1ccccc1-c1nnc(SCC(=O)N2CCOCC2)o1	i
CCN(CC)C(=O)c1sc(NC(=O)c2cc(OC)cc(OC)c2)c(C(=O)OC(C)C)c1C	i
The list continues.
SMILES	Mtb H37Rv
Cn1c(SCC(=O)Nc2ccc(Br)cc2)nnc1-c1ccccn1	i
COc1ccc(C(=O)NCC2CCCO2)cc1Br (stereo not drawn)	i
COc1ccc(CNC(=O)c2ccccc2SC)cc1	i
CCCC(=O)Nc1ccc(Cl)c(NC(=S)NC(=O)C(C)C)c1	i
COc1ccc2ccccc2c1C(O)c1cccs1 (stereo not drawn)	i
COC(=O)CN(c1ccccc1F)S(C)(=O)=O	i
CS(=O)(=O)N1CCCC(C(=O)NCC2CCCO2)C1 (stereo not drawn)	1.0%
COC(=O)c1c(-c2ccc(C)cc2)csc1NC(=O)c1cc(OC)cc(OC)c1	i
O=C(Nc1ccccc1C(=O)OCc1cccc(F)c1)c1ccco1	28.6%
CCC(=O)N1c2ccccc2NC2=C(C(=O)CCC2)C1c1ccc(OC)cc1 (stereo not drawn)	i

2 consecutive compounds already listed, quoted:
SMILES	Mtb H37Rv
COC(=O)CN(c1ccccc1F)S(C)(=O)=O	i
CS(=O)(=O)N1CCCC(C(=O)NCC2CCCO2)C1 (stereo not drawn)	1.0%

(more compounds)
SMILES	Mtb H37Rv
COc1ccc(OC)c(N/C(=N/c2nc(C)cc(C)n2)NC(C)=O)c1	i
O=[N+]([O-])c1ccc2[nH]c(=S)[nH]c2c1	i
COc1ccc(-c2cc(C(=O)N/N=C\c3ccccn3)[nH]n2)cc1	i
COc1c(C)cc(S(=O)(=O)N2CCN(c3ccc(F)cc3)CC2)c(C)c1C	i
CCOC(=O)N1CCN(C(=O)COc2cccc(C)c2)CC1	i
COc1ccc(S(=O)(=O)N2CCN(CCO)CC2)cc1-c1nnc2c3ccccc3c(C)nn12	i
CCN(CC)C(=O)C(=O)Nc1cc(C)ccc1OC	i
CCc1ccc(OCc2nnc(SCC(=O)Nc3nc(-c4ccccc4)c(C)s3)o2)cc1	5.1%
O=C(Nc1cccc(Cl)c1)c1ccc(Cl)c(N2C(=O)CCC2=O)c1	2.5%
O=C(CSc1nc(-c2ccccc2)cs1)NC1CCCCC1	1.1%

5 entries already listed, ordered by formula weight, lowest first.
SMILES	Mtb H37Rv
COc1ccc(NC(=O)Cc2ccc(C)cc2)cc1	5.2%
O=c1ccc2ccc(OCc3ccc(F)cc3Cl)cc2o1	1.1%
COc1ccc(-c2noc(COc3ccccc3Cl)n2)cc1OC	i
CCc1cccc(CC)c1NC(=O)c1ccccc1Nc1ccccc1OC	i
CCc1ccccc1NC(=O)c1ccc(C(=O)Nc2ccccc2CC)s1	i

Given bar-delimited: two of the compounds above.
SMILES | Mtb H37Rv
COc1ccc(-c2cc(C(=O)N/N=C\c3ccccn3)[nH]n2)cc1 | i
COc1c(C)cc(S(=O)(=O)N2CCN(c3ccc(F)cc3)CC2)c(C)c1C | i

(cont.)
SMILES	Mtb H37Rv
Cc1ccc(N2CC(C(=O)OCc3ccccc3)CC2=O)cc1 (stereo not drawn)	?
CCc1nc(C)cn1S(=O)(=O)c1cc(Br)c(C)cc1OC	i
CCC(=O)Nc1ccc(S(=O)(=O)Nc2nccc(/C=C/c3ccccc3Cl)n2)cc1	i
Cc1ccccc1NC(=O)CSc1cc(C)c2ccccc2n1	i
Cc1coc(NC(=O)c2sc3nc4c(c(C(F)(F)F)c3c2N)CCC4)n1	2.6%
CSc1ccccc1NC(=O)c1ccc(N(Cc2ccccc2Cl)S(C)(=O)=O)cc1	i
Cc1ccc(CN2C(=O)C(=O)c3cc(C)ccc32)cc1	7.3%
Cc1ccccc1C(=O)Nc1cc(Cl)ccc1N1CCOCC1	4.2%
N#C/C(=C/c1ccc2c(c1)OCO2)c1ccc(Cl)cc1	i
Cc1cc(C)nc(SCc2nnc(SCC(=O)Nc3sc(C)c(C)c3C#N)n2-c2ccccc2)n1	i
O=C(Nc1ccccc1C1CC1)c1cccs1	i
CCOC(=O)c1ccc(NC(=O)NCCc2ccccc2OC)cc1	i
Cc1c(-c2ccccc2)nc2ccccc2c1C(=O)NCc1cccs1	i
O=C(Nc1ccc(S(=O)(=O)Nc2ccc(I)cc2)cc1)c1ccc(F)cc1	41.6%
CCOC(=O)N1CCN(C(=O)COc2ccc(S(=O)(=O)NCc3ccccc3)cc2)CC1	i
O=C(Nc1ccc(N2CCN(c3c(F)c(F)c(F)c(F)c3F)CC2)cc1)c1cccc([N+](=O)[O-])c1	i
